D2 PAM: positive allosteric modulators of human D2 dopamine receptor; P14416; DiscoveRx D2 beta-arrestin cells, luminescence, 90 min; 100% = 57 uM dopamine signal; potentiation, % (no concentration beside the values); 0.23% of 360,000 active; AID 624464; active = potentiation of 50% or more; inconclusive = 30% to 50%; inactive = 30% or less;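 note: compound concentration not given in the record; tested on top of an EC20 dose of dopamine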
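PathHunter beta-arrestin assay in DiscoveRx D2 cells. Compounds were added with an EC20 of dopamine (50 nM final) for 90 min at 37 deg C. Luminescence was read 1 h after detection reagent, with 57 uM dopamine as the EC100 control.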
D2 ag: human D2 receptor agonism in beta-arrestin assay. 0.084% of 360,000 active. activation, % (concentration not given with the values). P14416. DiscoveRx PathHunter D2 beta-arrestin, luminescence, 90 min; 100% = 57 uM dopamine signal. AID 624465; in the data active = activation above about 40%; inconclusive = about 15% to 40%; inactive = below about 15%; note: compound concentration not given in the record; the text of the record calls up to 30% inactive
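DiscoveRx PathHunter D2 beta-arrestin cells (2,100/well) attached overnight, then compound-stimulated 90 min at 37 C in HBSS/10 mM HEPES/0.1% Tween-20 buffer; beta-galactosidase complementation read by luminescence after 1 h at ambient temperature. Dopamine 57 uM final (EC100) as control.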
PINK1 modulator: changes PINK1 expression; Potency, µM (series often up to 76.6 µM), inactives show at the top dose activation (PINK1 increase), usual class: activators; AID 624263; PINK1 immunofluorescence, high-content cytometry, 24 h; 0.2% of 410,000 active; active = well fitted activation curve with a large enough effect; inconclusive = small, poorly fitted or top-dose-only effect; inactive = flat fitted curve, though single readings scatter; cell line not stated here;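 note: potency is the fitted concentration of half-maximal effect; % of control where 0% means no effect; nearly all actives have a fitted effect of over 65% in size; a mitochondrial uncoupler was the plate control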
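Measures PINK1 amount and localization on or inside mitochondria by immunofluorescence. Stable cells get compounds at 5 concentrations for 24 hours before fixation and staining; CCCP controls included.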
Sfp inh: Sfp phosphopantetheinyl transferase inhibition; 3.5% of 310,000 active; Potency, µM, for inactives: max response, negative = inhibition, most hits filed as inhibitors; AID 1490; Biochemical Sfp PPTase activity, qHTS; active = well fitted inhibition curve with a large enough effect; inconclusive = small, poorly fitted or top-dose-only effect, or another doubt; inactive = no such curve, though single readings can be large or run the other way;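 note: the enzyme is Sfp with the accession as filed and its product quenches rhodamine fluorescence; potency is the fitted concentration of half-maximal effect; 0% = enzyme reaction without inhibitor and -100% = no enzyme wells; top concentration of the series not given in the record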
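Compounds were incubated with enzyme (final 15 nM) for 15 min at room temperature before substrate addition started the reaction. Fluorescence at 525 nm excitation, 598 nm emission was recorded immediately and after 30 minutes.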
CtBP-E1A inh: inhibitors of CtBP/E1A interaction | AlphaScreen GST-E1A/His-CtBP binding, 1536-well; active compounds read low; control for the full effect not named in the record | activity change, % (concentration not given with the values) | 0.49% of 340,000 active; in the data active means activity change below about -65%; inconclusive means about -30% to -65%; inactive means above about -30%; note: % is set by controls: 0 for no effect and ±100 for the full control effect
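Homogeneous bead-based format: GST-tagged E1A captured on glutathione donor beads, His-tagged CtBP on nickel acceptor beads; compounds precede bead addition by 2 h at 37 °C.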
TRPV1 potentiator: potentiators of human vanilloid receptor 1 (TRPV1). TRPV1-expressing cells, Fluo-8 calcium influx, capsaicin EC20 potentiation; host cell line not named in the record; control for the full effect not named in the record. Q8NER1. potentiation, % at 8.33 µM. AID 540277. 0.02% of 320,000 active; active means potentiation above 80%; inconclusive means 30% to 80%; inactive means below 30%; note: 0% is about no effect
Target sequence (Q8NER1 whole entry, looked up): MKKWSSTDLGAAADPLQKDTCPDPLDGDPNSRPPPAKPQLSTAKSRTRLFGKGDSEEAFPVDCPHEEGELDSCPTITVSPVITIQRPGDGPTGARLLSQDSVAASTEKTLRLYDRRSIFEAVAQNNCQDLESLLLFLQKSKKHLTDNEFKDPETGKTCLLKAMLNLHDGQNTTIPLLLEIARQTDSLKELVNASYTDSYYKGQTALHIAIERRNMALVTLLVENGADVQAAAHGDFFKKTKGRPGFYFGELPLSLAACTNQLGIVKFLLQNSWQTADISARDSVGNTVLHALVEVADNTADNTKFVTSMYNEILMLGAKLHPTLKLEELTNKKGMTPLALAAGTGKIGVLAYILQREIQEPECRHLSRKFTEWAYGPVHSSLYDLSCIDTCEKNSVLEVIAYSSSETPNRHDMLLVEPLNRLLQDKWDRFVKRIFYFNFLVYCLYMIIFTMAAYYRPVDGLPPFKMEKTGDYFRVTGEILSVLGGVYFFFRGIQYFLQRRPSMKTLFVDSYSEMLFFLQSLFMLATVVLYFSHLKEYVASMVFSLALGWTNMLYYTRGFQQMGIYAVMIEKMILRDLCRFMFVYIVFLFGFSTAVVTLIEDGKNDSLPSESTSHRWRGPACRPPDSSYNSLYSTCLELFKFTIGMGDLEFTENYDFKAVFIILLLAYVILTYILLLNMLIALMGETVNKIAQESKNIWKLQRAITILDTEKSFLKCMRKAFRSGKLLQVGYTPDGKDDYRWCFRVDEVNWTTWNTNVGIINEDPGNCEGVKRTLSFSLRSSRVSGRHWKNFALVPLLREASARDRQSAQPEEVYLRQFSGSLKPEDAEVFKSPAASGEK
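Cells expressing TRPV1 were dye-loaded with Fluo-8 and read kinetically: 10 s baseline, 3 min after compound (agonist portion), then 2 min after EC20 capsaicin (allosteric enhancer portion). Calcium-bound dye fluorescence at 480/520 nm.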
Six1-Eya2 inh: Six1/Eya2 interaction inhibition; Q15475+O00167; AlphaScreen GST-Six1/His-Eya2 binding, biochemical; active compounds read low; control for the full effect not named in the record; activity change, % (concentration not given with the values); 0.56% of 360,000 active; AID 651725; in the data active = activity change below about -65%; inconclusive = about -30% to -65%; inactive = above about -30%; note: % is set by controls: 0 for no effect and ±100 for the full control effect
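GST-Six1 + His-Eya2 (5X stock: 250/500 nM); Tris pH 8.0, 300 mM NaCl, 0.05% BSA, 0.02% Tween 20; GSH donor/Ni acceptor beads; 1 h 37 °C dark; AlphaScreen readout.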
* = called active by the depositor; & = joins results of further samples; [ ] = dose if it differs, or a comment.

Screening O=C(Nc1ccccc1)N1CCC(C(=O)N2CCN(S(=O)(=O)c3cccc(F)c3)CC2)CC1 returned D2 PAM 15, D2 ag -1.6, PINK1 modulator 16%[38.3 µM], Sfp inh 3%, CtBP-E1A inh -3, TRPV1 potentiator 19 and Six1-Eya2 inh 2.
COCC(C)NC(=O)c1cc2c(ccc3ccccc32)oc1=O (stereo not given) was read as D2 PAM inconclusive, D2 ag 4.3, PINK1 modulator 2.7%, Sfp inh 10%, TRPV1 potentiator 22 and Six1-Eya2 inh -2.
Screening CSCC(=O)N1CCCC(CO)(CCCc2ccccc2)C1 (stereo not given) returned D2 PAM -2, D2 ag -1.7, PINK1 modulator -0.9%, Sfp inh 15%, CtBP-E1A inh -13, TRPV1 potentiator 1 and Six1-Eya2 inh -1.
For COc1cccc(/C=N\NC(C)=O)c1OC/C=C/c1ccccc1 the results were D2 PAM -23, D2 ag -4.4, PINK1 modulator inconclusive, Sfp inh -1%, CtBP-E1A inh 8, TRPV1 potentiator 2 and Six1-Eya2 inh -1.
COc1ccc(C(=O)NCCCOc2cccnc2)cc1OC1CCN(C(C)=O)CC1 was read as D2 PAM -3, D2 ag -4.3, PINK1 modulator 0.3%, Sfp inh 13%, CtBP-E1A inh 2, TRPV1 potentiator 9 and Six1-Eya2 inh -4.
For O=C(Nc1cc(Cl)ccc1F)c1ccc(-n2cncn2)c([N+](=O)[O-])c1 the results were D2 PAM 6, D2 ag 5.0, PINK1 modulator 5.2%, CtBP-E1A inh -7, TRPV1 potentiator -4 and Six1-Eya2 inh 3.
CC(=O)c1ccc(OCC(=O)NCC(c2ccco2)N2CCCCC2)cc1 (stereo not given) was read as D2 PAM -6, D2 ag -5.9, PINK1 modulator -0.3%, Sfp inh -14%, CtBP-E1A inh 5, TRPV1 potentiator -7 and Six1-Eya2 inh 3.
For CCOC(=O)Oc1ccc(C(=O)OCCCN(C)C)cc1OC the results were D2 PAM -8, D2 ag -4.0, PINK1 modulator 1.9%, Sfp inh 3%, CtBP-E1A inh -2, TRPV1 potentiator 8 and Six1-Eya2 inh 3.
O=C(CCc1ccccc1)N[C@@H]1c2ccccc2CC[C@@H]1OCc1ccccc1 was read as D2 PAM -6, D2 ag -1.2, PINK1 modulator 4.9%, CtBP-E1A inh -7 and Six1-Eya2 inh -10.
Screening CC1CCCC(C)N1C(=O)COC(=O)c1ccc(F)c(S(=O)(=O)N2CCOCC2)c1 (stereo not given) returned D2 PAM 5, D2 ag -2.4, PINK1 modulator 0.6%, Sfp inh 12%, CtBP-E1A inh 2, TRPV1 potentiator 2 and Six1-Eya2 inh -7.
`O=C(CSc1nnc(-c2ccc(Cl)cc2)n1-c1ccccc1)N/N=C/c1ccccc1C(=O)O` gave D2 PAM -1, D2 ag -3.7, PINK1 modulator 0.7%, Sfp inh 17%, TRPV1 potentiator 11 and Six1-Eya2 inh -3.
`Cc1c(Cc2c(Cl)cccc2Cl)c(=O)ccn1C(C)c1ccccc1` (stereo not given) gave D2 PAM 15, D2 ag -2.2, PINK1 modulator -0.6%, Sfp inh 6%, CtBP-E1A inh 3, TRPV1 potentiator 14 and Six1-Eya2 inh 4.

Gathered by group: the compounds so far containing a Cl atom
For O=C(Nc1cc(Cl)ccc1F)c1ccc(-n2cncn2)c([N+](=O)[O-])c1 the results were D2 PAM 6, D2 ag 5.0, PINK1 modulator 5.2%, CtBP-E1A inh -7, TRPV1 potentiator -4 and Six1-Eya2 inh 3.
`O=C(CSc1nnc(-c2ccc(Cl)cc2)n1-c1ccccc1)N/N=C/c1ccccc1C(=O)O` gave D2 PAM -1, D2 ag -3.7, PINK1 modulator 0.7%, Sfp inh 17%, TRPV1 potentiator 11 and Six1-Eya2 inh -3.
`Cc1c(Cc2c(Cl)cccc2Cl)c(=O)ccn1C(C)c1ccccc1` (stereo not given) gave D2 PAM 15, D2 ag -2.2, PINK1 modulator -0.6%, Sfp inh 6%, CtBP-E1A inh 3, TRPV1 potentiator 14 and Six1-Eya2 inh 4.

Other results
CC(=O)OCc1c(F)c(F)c(-n2nc(C)cc2C)c(F)c1F was read as D2 PAM -9, D2 ag 15, PINK1 modulator -0.4%, Sfp inh 7%, CtBP-E1A inh -1, TRPV1 potentiator -38 and Six1-Eya2 inh 7.
Cc1ccc(NC(=O)CN(C)C(=O)Cc2ccc3c(c2)CCC3)cc1 was read as D2 PAM -22, D2 ag -2.6, PINK1 modulator 1.8%, CtBP-E1A inh 7, TRPV1 potentiator 8 and Six1-Eya2 inh -6.
Cc1cc(C)c(S(=O)(=O)N2CCN(c3ccccc3)CC2)c(C)c1 was read as D2 PAM -13, D2 ag -5.5, PINK1 modulator 1.3%, Sfp inh 19%, CtBP-E1A inh 16, TRPV1 potentiator -1 and Six1-Eya2 inh -4.
Cc1ccc(/C=N\NC(=O)CC(=O)NCCc2ccccc2)cc1 was read as D2 PAM -3, D2 ag 1.6, PINK1 modulator 3.0%, Sfp inh 16%, CtBP-E1A inh 3, TRPV1 potentiator -2 and Six1-Eya2 inh 7.
For Cc1ccc(NC(=O)C2CC(=O)N(C(C)C)C2)cc1C (stereo not given) the results were D2 PAM -4, D2 ag -6.9, PINK1 modulator -0.1%, Sfp inh 22%, CtBP-E1A inh -6, TRPV1 potentiator -9 and Six1-Eya2 inh 14.
`C[C@@H](NS(=O)(=O)c1ccc(Br)cc1F)[C@@H](O)c1ccccc1` gave D2 PAM -10, D2 ag -3.9, PINK1 modulator 0.4%, CtBP-E1A inh 4 and Six1-Eya2 inh 0.
Cc1ccc(S(=O)(=O)Nc2ccccc2C(=O)N2CCCCC2C)c(C)c1NS(C)(=O)=O (stereo not given) was read as D2 PAM -4, D2 ag -3.3, PINK1 modulator 1.8%, Sfp inh 17%, CtBP-E1A inh 3, TRPV1 potentiator -4 and Six1-Eya2 inh 1.
`O=C(N/N=C/c1sc(=O)n(-c2ccccc2)c1Cl)c1ccncc1` gave D2 PAM -13, D2 ag -1.8, PINK1 modulator 1.8%, Sfp inh -17%, CtBP-E1A inh -19, TRPV1 potentiator -6 and Six1-Eya2 inh -24.
Screening CCCN(Cc1cc2ccc(C)cc2[nH]c1=O)C(=O)c1cccnc1 returned D2 PAM -12, D2 ag -1.2, PINK1 modulator 1.5%, Sfp inh 9%, CtBP-E1A inh 10, TRPV1 potentiator -10 and Six1-Eya2 inh 1.
COc1ccc(S(=O)(=O)N2CCN(C)CC2)cc1Br was read as D2 PAM -11, D2 ag -2.8, PINK1 modulator 1.4%, Sfp inh 15%, CtBP-E1A inh 2, TRPV1 potentiator 1 and Six1-Eya2 inh 4.
Screening COc1cccc(CNC(=O)Cn2ccc3cc(S(=O)(=O)N4CCCC4)ccc32)c1 returned D2 PAM -1, D2 ag -2.9, PINK1 modulator 0.4%&0.6%, Sfp inh 10%, CtBP-E1A inh 24, TRPV1 potentiator -3 and Six1-Eya2 inh 6.
For O=C(c1cccnc1Cl)N1CCOCC1 the results were D2 PAM -3, D2 ag 0.7, PINK1 modulator 2.1%, Sfp inh -6%, CtBP-E1A inh 4, TRPV1 potentiator -15 and Six1-Eya2 inh 11.
Screening COc1ccc(/C=N/NC(=O)c2ccc3c(c2)OCCO3)c(OC)c1 returned D2 PAM -11, D2 ag 0.4, PINK1 modulator 1.6%, Sfp inh -13%, CtBP-E1A inh -6, TRPV1 potentiator -2 and Six1-Eya2 inh 5.
COc1ccc(C(CC(=O)Nc2cc(C)ccn2)N2Cc3ccccc3C2=O)cc1 (stereo not given) was read as D2 PAM -9, D2 ag -5.3, PINK1 modulator -0.3%, Sfp inh 8%, TRPV1 potentiator -6 and Six1-Eya2 inh -4.
CCn1nnnc1SCC(=O)Nc1nc2ccccc2s1 was read as D2 PAM 0, D2 ag -4.7, PINK1 modulator 2.5%, Sfp inh 14%, CtBP-E1A inh -2, TRPV1 potentiator -5 and Six1-Eya2 inh 2.
For O=C(Nc1ccc(Cl)cc1)c1cc2c(cc1O)[nH]c1ccccc12 the results were D2 PAM -11, D2 ag -2.6, PINK1 modulator inconclusive, Sfp inh -7%, CtBP-E1A inh 11, TRPV1 potentiator -15 and Six1-Eya2 inh -2.
For Nc1nnc(SCC(=O)N2CCCCC2)s1 the results were D2 PAM -12, D2 ag -2.5, PINK1 modulator 2.0%, Sfp inh 17%, CtBP-E1A inh -1, TRPV1 potentiator -14 and Six1-Eya2 inh -2.
`COc1ccc(OC)c2[nH]c(=O)c(CCNC(=O)C(=O)c3c[nH]c4ccccc34)cc12` gave D2 PAM -2, D2 ag 0.1, PINK1 modulator 3.6%, Sfp inh 20%, TRPV1 potentiator 20 and Six1-Eya2 inh 1.
For O=C1NN(c2cccc(Br)c2)C(=O)/C1=C\c1ccc(N2CCOCC2)cc1 the results were D2 PAM -2, D2 ag 1.9, PINK1 modulator -0.3%, Sfp inh -2%, CtBP-E1A inh 8, TRPV1 potentiator -9 and Six1-Eya2 inh 0.
O=S(=O)(CC(CN1CCCCC1)N1CCCCC1)c1ccccc1 (stereo not given) was read as D2 PAM -16, D2 ag -5.8, PINK1 modulator 2.0%, Sfp inh -10%, TRPV1 potentiator -19 and Six1-Eya2 inh 0.
`Cc1ccc(S(=O)(=O)N2CC3(O)CN(C(=O)OC(C)C)N(C(=O)OC(C)C)CC3(OC(=O)NCc3ccccc3)C2)cc1` (stereo not given) gave D2 PAM 0, D2 ag -5.8, PINK1 modulator 1.4%, CtBP-E1A inh 2 and Six1-Eya2 inh -5.
O=c1c(Cl)cc(Cl)nn1-c1ccccc1 was read as D2 PAM -7, D2 ag -3.7, PINK1 modulator -0.7%, Sfp inh 10%, CtBP-E1A inh 1, TRPV1 potentiator 4 and Six1-Eya2 inh 1.
Screening COc1cccc(NC(=O)c2ccccc2NC(=O)c2ccncc2)c1 returned D2 PAM -2, D2 ag 5.8, PINK1 modulator -0.7%, CtBP-E1A inh 3 and Six1-Eya2 inh 0.
For CC(NC(=O)COc1ccccc1)C(=O)OCC(=O)c1cc2ccccc2o1 (stereo not given) the results were D2 PAM -55, D2 ag -15, PINK1 modulator 2.3%, Sfp inh -7%, CtBP-E1A inh -2, TRPV1 potentiator 18 and Six1-Eya2 inh 2.
O=c1[nH]c(=O)n(C2C[C@H](O)[C@@H](CO)O2)cc1C(F)(F)F (stereo not given in full) was read as D2 PAM -8, D2 ag -2.2, PINK1 modulator -0.4%, Sfp inh 16%, CtBP-E1A inh 4, TRPV1 potentiator -2 and Six1-Eya2 inh 3.
Screening CCOC(=O)N1CCN(c2c(N3CCN(c4ccc(F)cc4)CC3)c(=O)c2=O)CC1 returned D2 PAM -1, D2 ag -0.1, PINK1 modulator -0.4%, Sfp inh 17%, CtBP-E1A inh 5, TRPV1 potentiator -10 and Six1-Eya2 inh 0.

Assay outcomes from PubChem.
